GIV-Gai inh = GIV-Galpha-i interaction inhibition; Galpha-i3/FITC-GIV peptide fluorescence polarization, 90 min; stronger effect = lower value; scaled: aluminum fluoride 0%, vehicle 100%; percent of control (FP), % (concentration not given with the values); 210,000 compounds, 0.42% hits; AID 1224905;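 active = replicate mean at 85% of control or lower, very high polarization wells dropped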;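 note: wells of about 15 µL received 100 nL stock; the first replicate is given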
Target sequence (P08753 whole entry, looked up): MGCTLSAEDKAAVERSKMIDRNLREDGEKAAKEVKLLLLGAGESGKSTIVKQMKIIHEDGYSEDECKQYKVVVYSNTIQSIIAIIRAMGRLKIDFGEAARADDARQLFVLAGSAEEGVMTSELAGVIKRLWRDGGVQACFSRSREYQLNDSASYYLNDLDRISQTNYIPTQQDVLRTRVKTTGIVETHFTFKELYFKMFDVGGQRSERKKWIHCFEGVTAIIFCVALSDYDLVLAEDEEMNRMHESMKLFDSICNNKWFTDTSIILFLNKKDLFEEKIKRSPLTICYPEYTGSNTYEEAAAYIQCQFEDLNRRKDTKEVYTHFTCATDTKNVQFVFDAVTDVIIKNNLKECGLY
HCMV NEC inh = cytomegalovirus nuclear egress complex inhibition; 190,000 compounds, 0.15% hits; inhibition, % (no concentration beside the values); HTRF UL50-UL53 interaction, normalized percent inhibition; AID 1918969;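 active = both replicates at 50% or more, plus weaker picks with an unusually low signal ratio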;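 note: stock transfer was 100 nL into about 20 µL; 0% = negative control wells and 100% = wells with untagged competitor protein; inactives centre near -12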
Sa growth 42C = S. aureus growth inhibition; S. aureus RN4220 growth, OD600, 20 h, 42 °C; stronger effect = lower value; relative growth, % (concentration not given with the values); 170,000 compounds, 0.53% hits; AID 720641;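 active = growth at 42 °C up to 50% and 20 or more points under that at 30 °C, or under 10% at both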;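 note: 300 nL library stock went into each well; scaled to the means of positive and negative controls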
Sa growth 42C second temp = second read-out of Sa growth 42C, no call of its own (marks repeat the call); relative growth, %; measured here: growth at 30 °C;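 optical density after 20 h as mean of two plates; 100% = untreated growth and lower means inhibition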
The depositor's hits bear a star; x = no result given; & = joins results of further samples.

compound	Sa growth 42C second temp	GIV-Gai inh	HCMV NEC inh	Sa growth 42C
O=C(COC(=O)c1cn(-c2ccccc2)nc1-c1cccs1)NC1CCS(=O)(=O)C1 (stereo not drawn)	93.2	x	-31.8	65.0
CC1CN(C(=O)C(C)Nc2ccc(Oc3ccccc3)cc2)CC(C)O1 (stereo not drawn)	81.5	x	-21.8	83.4
Cc1ccc(OCCOC(=O)c2nc3nccc(C)n3n2)cc1	84.5	x	-9.0	91.0
CC(C)(SC(=S)N1CCCCCC1)C(=O)O	88.7	95.8	x	72.4
CSc1ccc(CNC(=O)c2ccc(Cl)cc2)s1	101.4	100.2	2.9	80.6
CCN(Cc1ccccc1)c1ncc(NS(=O)(=O)c2ccc(F)cc2)cc1C(=O)O	x	119.8	-13.8	x
COC(=O)CSc1nc(-c2ccccc2)cc(-c2ccccc2)c1C#N	83.6	x	-12.4	89.1
COc1cccc(NC(=O)c2ccc(Cl)cc2)c1	88.7	x	-0.7	91.1
O=c1oc2ccccc2cc1-c1nc(-c2cccs2)no1	84.3&97.0	105.0&103.2	-40.3	111.7&106.2
CN(C)CCNC(=O)C(c1ccccc1)c1ccccc1	91.5	x	4.1	106.0

5 of the compounds above, with values under each structure.
Every second line gives: Sa growth 42C second temp | GIV-Gai inh | HCMV NEC inh | Sa growth 42C
COc1cccc(NC(=O)c2ccc(Cl)cc2)c1
→ 88.7 | x | -0.7 | 91.1
CCN(Cc1ccccc1)c1ncc(NS(=O)(=O)c2ccc(F)cc2)cc1C(=O)O
→ x | 119.8 | -13.8 | x
O=C(COC(=O)c1cn(-c2ccccc2)nc1-c1cccs1)NC1CCS(=O)(=O)C1 (stereo not drawn)
→ 93.2 | x | -31.8 | 65.0
CSc1ccc(CNC(=O)c2ccc(Cl)cc2)s1
→ 101.4 | 100.2 | 2.9 | 80.6
Cc1ccc(OCCOC(=O)c2nc3nccc(C)n3n2)cc1
→ 84.5 | x | -9.0 | 91.0

(more compounds)
compound	Sa growth 42C second temp	GIV-Gai inh	HCMV NEC inh	Sa growth 42C
CCc1ccc(N2C(=O)/C(=C/c3cccn3C(C)(C)C)C(=O)NC2=S)cc1	59.6	93.7	x	87.7
CNC(=O)CSc1ncnc2sc3c(c12)CCCC3	85.8	102.7	-19.8	82.4
CCn1c(=O)c(N2CCC(C(=O)NCc3ccc(C)cc3)CC2)nc2cccnc21	x	96.5	-16.5	x
CCCNC(=O)Cc1c(C)[nH]n(-c2nc(C)c(C)s2)c1=O	x	102.1	4.5	x
COc1ccc(C(CNC(=O)c2ccc3c(c2)SC2=NS(=O)(=O)CCN23)N2CCOCC2)cc1 (stereo not drawn)	91.3	x	-12.2	76.7
O=C1N(c2ccccc2)NC(c2ccco2)C12CCCCC2 (stereo not drawn)	76.5	97.3	x	101.2
COc1cccc(CNC(=O)Cn2c(=O)oc3cc(S(=O)(=O)N4CCCCCC4)ccc32)c1	82.8	105.4	x	141.2
Cc1ccc(C(c2cccc(Br)c2)c2c(C)[nH]c3ccccc23)s1 (stereo not drawn)	67.0	108.6	-3.9	110.2
Cc1ccc(Cn2nnc3c(=O)n(Cc4cc(C)ccc4C)cnc32)cc1	102.3	103.3	3.5	106.6
CCOc1nc2ccccc2c(=O)n1CCO	85.1	x	0.8	120.8

(more compounds)
compound	Sa growth 42C second temp	GIV-Gai inh	HCMV NEC inh	Sa growth 42C
COC(=O)c1ccc2c(=O)nc3c(-c4ccccc4)n[nH]n3c2c1	82.5	106.7	-28.3	100.2
O=C1c2nccnc2C(=O)N1c1ccccc1	90.3	x	-0.8	113.8
COc1ccc(-c2csc(NC3=NS(=O)(=O)c4ccccc43)n2)cc1OC	x	97.7	-29.0	x
CC(C)CCSc1nc(-c2cccs2)ccc1C#N	91.5	107.3	-13.7	116.9
O=C(O)CSCC(=O)N1CCN(S(=O)(=O)c2cc(Cl)cc(Cl)c2)CC1	86.1	100.0	12.5	98.8
N#CCOC(=O)c1ccc(-n2cnnn2)cc1	93.9	x	-33.1	70.5
CCCCn1c(CN2CCC(C)CC2)nc2cc(NC(=O)C3CCCCC3)ccc21	x	100.2	8.2	x
CCOC(=O)c1ccc(-c2ccc(/C=C(\C#N)C(=O)Nc3ccc(OCC)cc3)o2)cc1	87.4	101.7	-19.0	103.5
Cc1ccccc1-c1nnc(CC23CC4CC(CC(C4)C2)C3)o1	41.5	107.7	-3.9	81.8
N#CSc1c(Cl)nc2sccn12	0.3*	x	-18.4	1.8*

Later entries:
compound	Sa growth 42C second temp	GIV-Gai inh	HCMV NEC inh	Sa growth 42C
Cc1ccc(OCCCn2ccnc2)cc1	71.7	104.4	5.9	101.8
CN1C(=O)Cc2cc(S(=O)(=O)N3CCN(C(c4ccccc4)c4ccccc4)CC3)ccc21	x	113.1	3.8	x
O=C(c1ccccc1Cl)N1CCN(c2cc(=O)n3nc(-c4ccccc4)sc3n2)CC1	x	100.9	-30.1	x
O=C1C=CC(=O)N1c1ccccc1	65.9	102.9	x	103.8
O=C(O)C1CCN(c2nccn3nc(-c4ccc(F)cc4)cc23)CC1	x	103.9	-43.4	x
O=C(Nc1ccc(-c2noc(-c3ccccc3Br)n2)cc1)c1cccnc1	81.9	x	0.9	109.5
O=C(CSC1CCCCC1)NC1CCCC1	101.3	x	17.7	107.0
CCCCCNC(=O)c1ccc2c(c1)ncn2-c1cccc(C)c1	61.4	99.7	x	82.9
Cc1ccc(OCc2cc(=O)n3c(C)csc3n2)cc1	x	97.3	-16.2	x
CC(=O)OC12CC3C4CC(O1)C1C4CC3C12 (stereo not drawn)	96.3	x	8.8	91.2

Next part:
compound	Sa growth 42C second temp	GIV-Gai inh	HCMV NEC inh	Sa growth 42C
CCOc1ccc(CNC(=O)c2ccc3c(c2)c(C)c(C)n3Cc2ccccc2)cc1OC	83.6	106.7	x	115.6
Cc1cc(-c2onc(C)c2C(=O)NC(=O)Nc2ccccc2)no1	88.5	101.4	x	99.7
CCOc1ccc(N2CC(c3nc4ccccc4n3Cc3cccc(Cl)c3)CC2=O)cc1 (stereo not drawn)	93.2	102.5	-20.1	98.0
CCOc1cc(C2C(C(=O)OC(C)CC)=C(C)NC3=C2C(=O)CC(c2ccc(OC)cc2)C3)ccc1O (stereo not drawn)	x	107.6	-22.1	x
CS(=O)(=O)N(CC(=O)O)c1cccc2ccccc12	79.2	103.4	-38.0	94.1
COc1ccc(C2CC(=O)c3cc(-c4nc(-c5cccc([N+](=O)[O-])c5)cs4)c(=O)n(-c4ccccc4N)c3C2)cc1 (stereo not drawn)	100.0	113.5	-13.8	100.2
Cc1ccc(NS(=O)(=O)c2c(C(=O)N3CCC(C)CC3)c(C)n(C)c2C)cc1Cl	58.5	108.5	x	87.8
OC1CN=C2C=CC=CN2C1 (stereo not drawn)	93.6	100.2	-32.2	96.9
O=S(=O)(/N=C1\C=C2N(CCO)CCOC2(O)c2ccccc21)c1ccccc1 (stereo not drawn)	21.1	95.5	x	41.5
COc1ccccc1CNC(=O)CC(c1ccc(C)cc1)N1Cc2ccccc2C1=O (stereo not drawn)	75.7	101.9	x	131.1

(continued)
compound	Sa growth 42C second temp	GIV-Gai inh	HCMV NEC inh	Sa growth 42C
CCc1ccc(NC(=O)N2CCN(c3nc4cccnc4n(Cc4ccccc4)c3=O)CC2)cc1	x	105.9	-37.1	x
CC(C)(C)c1ccc(NC(=O)NC2CCCc3ccccc32)cc1 (stereo not drawn)	86.5	102.1	-0.4	91.2
Cc1occc1-c1nnc(SCC(=O)c2ccc(OC(F)F)cc2OC(F)F)n1C	91.8	x	-24.6	76.4
COc1ccc(CC(=O)Nc2ccccc2)cc1	94.8	x	-11.3	93.3
CCCCN1CN(CCCN2CCCCC2)Cn2c1nc1ccccc12	81.3	x	-43.3	100.9
O=C(NCCC1=CCCCC1)c1ccc2c(c1)N(Cc1cccc(Cl)c1)C(=O)c1ccccc1S2(=O)=O	97.5	102.2	x	120.9
Cc1noc(C)c1COc1ncnc2ccccc12	94.2	x	-23.2	108.9
CCC(=O)Nc1ccc(C(=O)Nc2ccc(OCC(=O)O)cc2)cc1	86.2	103.5	-3.6	106.2
O=C(C1COc2ccccc2O1)N1CCN(c2ccccc2)CC1 (stereo not drawn)	96.4	98.9	2.0	94.5
COC(=O)CCSCc1cn2cc(Cl)ccc2n1	92.5	x	-13.8	126.1

Continuation.
compound	Sa growth 42C second temp	GIV-Gai inh	HCMV NEC inh	Sa growth 42C
CN1CCCc2cc(C(CNC(=O)c3ccc(Br)cc3)N3CCCC3)ccc21 (stereo not drawn)	x	101.4	-13.1	x
O=C1CSc2ccc(C(=O)NCCSCc3ccco3)cc2N1	101.2	x	-8.6	127.5
O=C(NC1CCCCC1)N1CCc2cc(S(=O)(=O)NC3CC3)ccc21	x	94.9	-13.7	x
CCc1ccc(NC(=O)CSc2nccn2-c2cccc(C)c2C)cc1	88.0	103.8	x	96.5
COc1ccc(NC(=O)Nc2nnc(N(C)Cc3ccccc3)s2)cc1	99.2	116.1	-14.0	105.2
CC(=O)Nc1cccc(NC(=O)CSc2cn(CC(=O)N3CCCCCC3)c3ccccc23)c1	92.2	100.2	x	121.8
CN1C/C(=C\c2ccc3c(c2)OCO3)C(=O)/C(=C/c2ccc3c(c2)OCO3)C1	90.1	x	6.6	100.0
CCOC(=O)c1cc(CSc2n[nH]c(=O)n2-c2ccccc2)nn1C(C)(C)C	88.8	101.8	-15.2	92.9
CC(C)(C)OC(=O)NCc1nc(N)n[nH]1	82.5	100.5	x	102.9
C=CCN(CC=C)C(=O)c1ccc(N2CCNCC2)c(NS(=O)(=O)c2ccc(Br)cc2)c1	x	106.5	-15.5	x

(next part)
compound	Sa growth 42C second temp	GIV-Gai inh	HCMV NEC inh	Sa growth 42C
O=C(CSc1ncc(C(F)(F)F)cc1Cl)NC(=O)CN1CCCC1=O	96.5	x	-12.3	102.4
Cc1nc(-c2ccc(F)cc2)sc1CCNC(=O)COc1ccccc1F	x	102.0	4.0	x
O=c1[nH]c2cc3c(cc2cc1CN(Cc1ccc2c(c1)OCO2)S(=O)(=O)c1ccc(F)cc1)OCO3	115.2	96.7	2.6	92.6
CC(=O)Nc1cccc(Oc2ncnc3scc(-c4ccc(C(C)C)cc4)c23)c1	59.9	100.3	x	74.0
COC(=O)c1cc(-c2ccc3c(c2)OCO3)nc2onc(C)c12	91.1	x	-31.6	95.7
CC1CN(c2ncnc3scc(-c4ccccc4)c23)CC(C)O1 (stereo not drawn)	69.6	106.1	-132.0	86.8
O=C(/C=C/c1ccc(Cl)cc1)N1CCN(C(=O)c2ccco2)CC1	86.2	x	-34.4	107.9
CNC(=O)/C=C1\N(C)c2ccccc2C1(C)C	85.4	x	-2.0	86.2
Clc1cc(Cl)cc(OCc2nn[nH]n2)c1	83.0	103.9	-21.8	92.2
Cc1cc(/C=C(/C#N)S(C)(=O)=O)c2c(C)ccc(C(C)C)cc1-2	87.0	102.2	-30.3	99.4

Further structures:
compound	Sa growth 42C second temp	GIV-Gai inh	HCMV NEC inh	Sa growth 42C
CC1=CC(=O)NC2C=CC=CC12 (stereo not drawn)	99.1	103.4	-3.4	82.3
CSC(=S)n1c(=Nc2ccccc2)sc2ccccc21	89.8	x	-11.5	129.3
CC(C)OCc1ccc(C(=O)O)cc1	94.7	x	-21.1	100.2
CCCn1c(=O)c2c(C(=O)NC3CC3)cc(=O)n(CCC)c2n(C)c1=O	x	103.9	-1.7	x
COc1ccc(OC)c(NC(=O)C2CCC(=O)N2S(=O)(=O)c2ccc(F)cc2)c1 (stereo not drawn)	x	101.0	3.9	x
Cc1ccc(NC(=O)Nc2c(C)n(C)n(-c3ccccc3)c2=O)c(Cl)c1	92.2	100.4	5.5	93.1
O=C(Cn1c(C(F)(F)F)nc2ccccc21)Nc1ccccc1C(=O)O	x	99.3	-7.2	x
CCCc1cc(NCCCN(CC)CC)n2c(nc3ccccc32)c1C#N	88.1	102.7	-33.7	95.6
COc1ccc(OC)c(NS(=O)(=O)c2ccccc2)c1	81.5	x	-9.3	97.8
O=C(NCCCN1CCN(c2ccccc2)CC1)c1sc2ncccc2c1-n1cccc1	88.5	100.3	x	91.5

Continued:
compound	Sa growth 42C second temp	GIV-Gai inh	HCMV NEC inh	Sa growth 42C
N#Cc1ccc(NC(=O)c2ccc(Br)o2)cc1	68.7	x	-10.8	101.6
COc1c(Cl)cc(Cl)cc1C(=O)Nc1cccc2cccnc12	97.7	100.8	9.5	100.2
Cc1cccc(-c2nnc(SCc3ccc(C#N)cc3)n2CC(N)=O)c1	87.4	x	-3.8	77.6
O=C(Nc1ccc(F)cc1F)C1CCCN(c2nc3cccnc3s2)C1 (stereo not drawn)	x	109.8	-29.1	x
CCOc1cc2[nH]c(=O)n(CCCCCC(=O)NC(C)CC)c(=O)c2cc1OCC (stereo not drawn)	82.5	106.2	x	90.8
Cc1ccc(Oc2ccc(OCC(=O)NCc3ccco3)cc2)cc1	71.2	x	-15.9	110.2
CCCCSCCCNC(=O)C1CCN(Cc2nc(-c3ccc(CC)cc3)oc2C)CC1	81.0	103.5	-18.7	118.1
O=C1/C(=C\c2ccco2)SC(=S)N1CCC(=O)N1CCCc2ccccc21	87.3	110.8	-15.6	104.2
Cc1ccccc1C(=O)Nc1nnc(C2=COCCO2)o1	59.9	104.6	-42.4	75.7
COc1ccc(NC(=O)CSc2nnc(CNc3ccc(C)cc3C)o2)c(OC)c1	97.3	103.2	-28.2	84.7
CN1CCN(NC(=O)c2ccccc2CCc2ccccc2)CC1	100.8	101.1	-0.8	100.6

Source: PubChem
